# N370S GC – qHTS Assay for Inhibitors and Activators of N370S glucocerebrosidase as a Potential Chaperone Treatment of Gaucher Disease; N370S GC spleen homogenate, 4MU-glucoside fluorescence; Potency, µM (doses to about 59.4 µM), inactives show at the top dose activity change, negative = inhibition, usual class: inhibitors; Lysosomal acid glucosylceramidase (Homo sapiens), P04062; 330,000 tested, 0.092% active;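 also: 0% = full enzyme activity and -100% = no enzyme basal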
# FEN1 inh – qHTS Assay for the Inhibitors of Human Flap endonuclease 1 (FEN1); P39748; Recombinant FEN1 flap cleavage, fluorescence, 15 min; Potency, µM (doses to about 114 µM), for the others: at the top dose activity change, negative = inhibition, hits mostly inhibitors; 390,000 tested, 0.35% active; also: nearly all actives have a fitted effect of over 65% in size
# Target sequence (P39748 whole entry, looked up): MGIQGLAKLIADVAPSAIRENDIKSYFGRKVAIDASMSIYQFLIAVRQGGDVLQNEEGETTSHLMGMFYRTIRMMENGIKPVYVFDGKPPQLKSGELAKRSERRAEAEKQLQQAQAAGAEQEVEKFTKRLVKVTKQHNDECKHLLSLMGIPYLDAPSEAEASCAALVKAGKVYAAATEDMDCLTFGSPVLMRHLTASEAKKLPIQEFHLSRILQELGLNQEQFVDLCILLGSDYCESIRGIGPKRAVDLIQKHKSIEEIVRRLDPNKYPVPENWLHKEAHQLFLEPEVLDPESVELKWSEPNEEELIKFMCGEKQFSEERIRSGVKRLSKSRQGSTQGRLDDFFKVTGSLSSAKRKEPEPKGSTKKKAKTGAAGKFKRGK
#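 Read-out was taken twice, immediately and after 15 min, following addition of 50 nM substrate to 10 nM FEN1 that had sat with test compound for 15 min at room temperature. Curves came from a four-parameter Hill model.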
# Active calls of the source: *; ? = inconclusive; / = no result given; & = joins results of further samples; [ ] = dose if it differs, or a comment. Calls follow the shape of the dose curve; as a rule, active = well fitted curve in the direction sought with a large enough effect; inconclusive = small, poorly fitted or top-dose-only effect, or another doubt; inactive = no such curve, though single readings can be large; an effect the other way counts as inactive or inconclusive. Unless noted, % is scaled to controls: 0 for no effect and ±100 for the full control effect; potency is read from the fitted curve at half-maximal effect. Some of the compounds tested; most or all hits stand in other tables.
# Start of the data: the first 3 records, to show the layout:
SMILES | N370S GC | FEN1 inh
COc1ccc(N(CC(=O)NCC2CCCO2)S(=O)(=O)c2ccccc2)cc1OC (stereo not given) | 4% | -5%
COC(C(=O)Nc1cccc([N+](=O)[O-])c1)c1ccccc1 (stereo not given) | -7% | -15%
Cn1nnnc1SCCCNCc1ccccc1OCc1ccccc1F | / | -14%

# The whole of this part, from the start:
SMILES | N370S GC | FEN1 inh
COc1ccc(N(CC(=O)NCC2CCCO2)S(=O)(=O)c2ccccc2)cc1OC (stereo not given) | 4% | -5%
COC(C(=O)Nc1cccc([N+](=O)[O-])c1)c1ccccc1 (stereo not given) | -7% | -15%
Cn1nnnc1SCCCNCc1ccccc1OCc1ccccc1F | / | -14%
COCC(=O)/C=C1\Sc2ccccc2N1C | -5% | 5%
CN(C)S(=O)(=O)c1ccc(C(=O)NCC(=O)N/N=C/c2cccs2)cc1 | 8% | -1%
Cc1ccc2sc(NC(=O)CN3C(=O)CCC3=O)nc2c1C | 1% | 15%
CC1CC(C)CN(C(=O)CN2C(=O)NC3(CCCCCC3)C2=O)C1 (stereo not given) | / | 4%
C/C(=N\NC(=O)c1ccn(C)n1)c1cccc(NC(=O)c2ccncc2)c1 | ? | 4%
COc1cc(C)c(C(C)C)cc1S(=O)(=O)n1ccnc1 | 5% | 3%
CN(C)c1cccc(NC(=O)Cc2ccc(F)cc2)c1 | -17%[2.35 µM] | 3%
Cc1cccc2cc(C3CC(c4cccs4)=NN3C(=O)CCC(=O)O)c(Cl)nc12 (stereo not given) | 2% | -4%
COc1ccccc1-c1cc(C(=O)N/N=C/c2ccc(C)s2)c2ccccc2n1 | 10% | 4%
NC(=O)CNC(=O)c1cccc(Cl)c1 | 4% | 15%
O=C(CCc1ccccc1)NNC(=S)Nc1ccc(F)cc1 | -4% | 4%
CSc1nnc(C)c(=O)n1COC(=O)COc1ccc(F)cc1 | -7% | 3%
CCCCc1nc2cc(C(=O)NCc3nccn3CC)ccc2o1 | -11% | -4%
O=C(NCCCN1CCCC1=O)c1ccc2c(c1)NC(=O)C(N1CCOCC1)S2 (stereo not given) | -3% | 8%
O=C(CSc1nnnn1-c1ccc(Cl)cc1)N1CCNC1=O | / | 15%
COc1ccc(NC(c2ccc(F)cc2)c2nnc(-c3ccccc3Cl)o2)cc1Cl (stereo not given) | / | 6%
CC(C)CO | 1% | /
CCCSc1ccc([C@H]2N[C@@](C)(C(=O)OC)[C@H]3C(=O)N(CC)C(=O)[C@@H]23)cc1 | / | 13%
Cc1ccc(NS(=O)(=O)c2ccccc2)c2c1CC(C)(C)O2 | 2% | -11%
O=C(CSc1nncc2ccccc12)Nc1ccc(F)cc1 | 2% | -1%
CCOc1ccc(NC(=S)C(C#N)=C2N(C)c3ccccc3N2C)cc1 | -7% | 0%

# Molecules above containing fluorine:
SMILES | N370S GC | FEN1 inh
Cn1nnnc1SCCCNCc1ccccc1OCc1ccccc1F | / | -14%
CN(C)c1cccc(NC(=O)Cc2ccc(F)cc2)c1 | -17%[2.35 µM] | 3%
O=C(CCc1ccccc1)NNC(=S)Nc1ccc(F)cc1 | -4% | 4%
CSc1nnc(C)c(=O)n1COC(=O)COc1ccc(F)cc1 | -7% | 3%
COc1ccc(NC(c2ccc(F)cc2)c2nnc(-c3ccccc3Cl)o2)cc1Cl (stereo not given) | / | 6%
O=C(CSc1nncc2ccccc12)Nc1ccc(F)cc1 | 2% | -1%

# (further entries)
SMILES | N370S GC | FEN1 inh
CSc1cccc(NC(=S)N(CCCN2CCC(C)CC2)Cc2cccs2)c1 | -15% | 2%
c1ccc(-c2ccc(CN3CCN(c4ncccn4)CC3)cc2)cc1 | 9% | -19%
Cc1cc(OCC(=O)NC2CC2)c2c(C)cc(=O)oc2c1 | -1% | -2%
C[N+](C)(C)CC[N+]1(C)Cc2c(Cl)c(Cl)c(Cl)c(Cl)c2C1 | 3%&-7% | /
CCOc1ncccc1C(=O)OCC(=O)c1ccc(Cl)s1 | -1% | -2%
C=CCN(c1ccc(C(N)=O)cc1)S(C)(=O)=O | 8% | 10%
COc1ccc(Br)cc1CNCc1c(C(=O)O)c(C)n(Cc2ccccc2C)c1C | / | -10%
CCNC(=S)N(CCc1c(C)[nH]c2ccc(C)cc12)Cc1cc(OC)c(OC)c(OC)c1 | 10% | ?
COc1ccc(NC(=O)C2CCN(S(=O)(=O)c3ccc(OC)c(OC)c3)CC2)c(OC)c1 | -7% | -1%
COc1ccc(OC)c(S(=O)(=O)n2ccnc2C)c1 | 1% | -14%
C(=C\c1ccccc1)/CSc1nnc(-c2ccncc2)n1Cc1ccco1 | 2% | -3%
COC(=O)c1cc(OC)nc2ccc(Br)cc12 | 3% | 5%
COCCCNC(=O)C1CCCCN1S(=O)(=O)c1ccc(F)cc1 (stereo not given) | 1% | -1%
COCc1cc(=O)n2[nH]c(SC)nc2n1 | 6% | -11%
CCc1ccc2c(COn3nnc4ccc(S(=O)(=O)N(C)C)cc43)cc(=O)oc2c1 | 10%[2.35 µM] | -15%
O=C(c1cnn(-c2cccc(F)c2)c1-n1cccc1)N1CCN(c2ccccc2F)CC1 | / | -7%
Clc1cccc(Cl)c1COc1ccncc1 | 2% | -8%
COc1cccc(CNC(=O)Cn2c(=O)c3cccn3c3ccccc32)c1 | 7% | -7%
Cc1ccc(S(=O)(=O)N(C)c2ccc(OCC(=O)Nc3nc4ccccc4s3)cc2)cc1 | 0% | 0%
Cc1cccc(C)c1NC(=O)CC(NCc1ccco1)C(=O)O (stereo not given) | -4% | 3%
CC(=O)OCC(=O)[C@@]1(O)[C@H](C)C[C@H]2[C@@H]3CCC4=CC(=O)C=C[C@]4(C)[C@@]3(F)[C@@H](O)C[C@@]21C | 2% | -9%
COc1ccc([N+](=O)[O-])cc1NC(=O)c1ccc(Br)s1 | 6% | -1%
CN1CCN(Cc2oc(CO)cc(=O)c2O)CC1 | -25% | 1%
Cn1c(-c2ccccc2)cc2c3no[n+]([O-])c3ccc21 | -3% | 6%
Cc1ccnc(N/N=C/c2ccco2)n1 | 0% | 8%
CCOC(=O)CSc1nnc([C@H](CC(C)C)NC(=O)OC(C)(C)C)o1 | 1% | 9%
CCOc1ccccc1NC(=O)CNC(=O)CNC(=O)Cc1ccccc1 | -2% | 6%
Cc1ccc(NC(=O)N2CCCC2C(=O)Nc2ccc3c(c2)OCCO3)cc1 (stereo not given) | -3% | 2%
C/C(=C\c1ccccc1)CN1CCN(c2ccccc2F)CC1 | 13% | 1%
O=C(NCc1cccs1)c1ccc(S(=O)(=O)N2CCCCC2)cc1 | -9% | 1%
Cc1ccccc1OCC(=O)NC(=S)Nc1ccccc1N1CCN(S(C)(=O)=O)CC1 | -5% | -7%
Cc1cc2ncn(/N=C/c3cccnc3)c2cc1C | ? | 10%
Cc1ccc(C2=NN(S(=O)(=O)c3ccccc3)C(c3ccco3)C2)cc1 (stereo not given) | / | 7%
CN(C)CCN1C(=O)C2C3C=CC(C3)C2C1=O (stereo not given) | -5% | 2%
CN1CCN(C(=S)NC(=O)c2cccc([N+](=O)[O-])c2)CC1 | -9% | 13%
Cc1ccc(CNc2nc3ccccc3n3cnnc23)cc1 | -14% | -4%&18%
COc1ccccc1NC(=O)C1Cc2ccccc2CN1C(=O)c1ccco1 (stereo not given) | -4% | -1%
Cc1c(C(=O)NCc2ccccc2Br)oc2c1-c1[nH]ncc1CC2 | / | 12%
COc1ccc(CNS(=O)(=O)c2cccc(S(=O)(=O)N3CCOCC3)c2)cc1 | 26% | 8%
CCCCOc1ccc(S(=O)(=O)NNC(=O)C2Cc3c(ccc4ccccc34)O2)cc1 (stereo not given) | 1% | -13%
CCc1nn(CCCC(=O)N2CCc3ccccc3C2)c(=O)c2cc3occc3n12 | -27% | -7%
CCc1nc(C(N)=O)c2[nH]c(=O)n(-c3ccccc3F)c2n1 | ? | 10%
O=C(NCc1ccc2c(c1)OCO2)c1ccc(Cl)nc1 | 4% | 4%
CC(=O)Nc1ccc(NC(=O)CCn2c(=O)oc3ccccc32)cc1 | -11% | 2%
Cn1c(-c2ccsc2)c(-c2cccs2)c2cc(-c3ccc4[nH]ccc4c3)ccc21 | / | 1%
Cc1ccccc1NC(=O)CSc1nc2ccccc2c(=O)n1C | -13% | 1%
Cc1ccc(-n2c(N)c(C(N)=O)sc2=S)cc1 | -8% | 0%
Cc1ccccc1Nc1ccc([N+](=O)[O-])cn1 | -15% | -2%
COC(=O)CN1C(=O)C(C)(C)Oc2ccc(C(=O)Nc3ccccc3F)cc21 | 2% | 10%
CCn1c(SCC(=O)NCc2ccco2)nnc1-c1ccncc1 | 0% | /
CCC(=O)Nc1nc(C)c(C(=O)NC2CCCCC2)s1 | 8% | -5%
CCOC(=O)CNC(=O)c1sc(NC(=O)/C=C/c2ccccc2)nc1C | -4% | 43%
O=C(Nc1ccc(C(=O)NC2CCCCC2)cc1)c1cccnc1 | 3% | 25%
Cc1ccc(Cn2c(SC3CCOC3=O)nc3ccccc3c2=O)cc1 (stereo not given) | 7% | 9%
N=C(N)c1ccc(N2CCN(C3CCN(CC(=O)O)CC3)CC2)cc1 | 2% | /
Cc1ccc(CC2CC(=O)N(c3ccncc3)C2=O)cc1 (stereo not given) | 6% | -2%

# Going on with the list:
SMILES | N370S GC | FEN1 inh
O=C(c1sc2ccccc2c1Cl)N1CCN(c2ccccc2F)CC1 | -19% | -15%
CCOc1cc(/C=N/OC(C)=O)ccc1OCc1ccccc1 | -15% | 8%
Cc1cc(C)nc(N2CCCC(C(=O)Nc3cc(F)ccc3C)C2)n1 (stereo not given) | -11% | -6%
CCOC(=O)c1c(C)nc(-c2ccccc2)nc1NC(=O)C(C)C | 4% | -12%
CCCCOC(=O)c1cc(=O)[nH]c2ccccc12 | 10% | 4%
CC(C)n1cc(/C=C2/NC(=O)NC2=O)c2ccccc21 | -14% | -1%
O=C(CCNC(=O)c1ccc([N+](=O)[O-])cc1)NCc1ccco1 | / | 6%
CN1CCN(c2ccccc2NC(=O)c2ccc(N3CCOCC3)c([N+](=O)[O-])c2)CC1 | -13% | -2%
COc1cccc(CNC(=O)c2ccc(NC(=O)CC3SC(N4CCCCC4)=NC3=O)cc2)c1 (stereo not given) | / | -3%
O=C(NC1CCCCC1)N1CCc2[nH]c3ccccc3c2C1 | 1%[2.35 µM] | 1%
CC(=O)c1ccc(NC(=O)C(C)OC(=O)CCN=C2NS(=O)(=O)c3ccccc32)cc1 (stereo not given) | -9% | 1%
COc1ccc(S(=O)(=O)N2CCc3ccccc32)cc1C(=O)N1CCC(C)CC1 | / | 6%
CC(=O)OCC(=O)C1(O)CCC2C3CCC4=CC(=O)C=CC4(C)C3C(O)CC21C (stereo not given) | -1% | -4%
COc1cccc(/C=C2/SC(=S)N(CCC(=O)N3CCOCC3)C2=O)c1 | -6% | 7%
Cc1ccc(CNCC(O)(c2ccccc2)c2ccc(Cl)cc2)cc1 (stereo not given) | -13% | 9%
O=C(CCc1nnc2n(Cc3ccccc3Cl)c(=O)c3ccccc3n12)Nc1ccccc1 | / | -1%
CCN(CCn1cccn1)C(=O)CC1C(=O)NCCN1Cc1ccc(F)c(F)c1 (stereo not given) | 24% | 5%
COc1ccc(OC)c(Nc2ccc(Nc3cc(OC)ccc3OC)nn2)c1 | -5% | -10%
C=CCn1c(Cc2cccs2)nnc1SCC(=O)NCc1ccco1 | 3% | 0%
CC1=C(C(=O)Nc2ccc(Cl)cc2C(=O)N2CCC(C(N)=O)CC2)SCCO1 | -5% | 24%
O=C(C[C@H]1C[C@H](C(=O)N2CCCCC2)[C@@]2(CCc3ccccc3)c3[nH]c4ccc(Cl)cc4c3CCN2C1=O)NCCC1=CCCCC1 | / | -5%
O=C(CN1CCN(C(=O)c2cccc(S(=O)(=O)N3CCCC3)c2)CC1)Nc1ccc(F)cc1 | / | -4%
CCc1ccc(OCC(=O)N2CCc3ccccc32)cc1 | 16% | 6%
O=C(Cc1c[nH]c2ccccc12)NCc1ccccc1F | -16% | 21%
CCOC(=O)Cn1c(=O)n(CC2CCCO2)c2nc(-c3ccc(OCC)cc3)nc(C(N)=O)c21 (stereo not given) | / | -4%
CCN(CC)CCNC(=O)C(C(=O)c1ccccc1)n1ccccc1=O (stereo not given) | 3% | 5%
O=C(Oc1ccccc1)c1ccc(-n2cnnn2)cc1 | -3% | 0%
Cc1cc(C)c2ccc(=S)[nH]c2n1 | -2% | 0%
COc1ccc(CCn2c(-c3ccncc3)n[nH]c2=S)cc1OC | -6% | 5%
CC(C)OCC1Cn2c(nc3c2c(=O)n(C)c(=O)n3C)O1 (stereo not given) | -1% | 13%
CCOC(=O)c1sc(N2C(=O)C(O)=C(C(=O)c3ccco3)C2c2ccc(C)o2)nc1C (stereo not given) | -6% | ?
O=C(Cc1cccs1)NCCCc1ccccc1 | -8% | -7%
CCN(CC)C1CC(=O)N(c2ccc(Br)cc2)C1=O (stereo not given) | 1% | 9%
COc1ccc(CNC(=O)C2CC(c3cccc(OC)c3)=NO2)cc1 (stereo not given) | 9% | 0%
O=C(O)c1ccc(-n2c(=O)c3ccccc3c3ccccc3c2=O)cc1 | 17% | -16%
Cc1cccc(C)c1NC(=O)CN(C)CC(=O)c1c(N)n(Cc2ccccc2)c(=O)n(C)c1=O | / | -19%
